eIF4H FP inh – inhibitors of RNA binding by human eIF4H | Q15056 | eIF4H fluorescence polarization binding assay | inhibition, % at 35 µM | actives 0.94% (n = 290,000) | AID 2012;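 active = 50% or more with normal probe brightness, or confirmed in later tests; about a fifth of its hits are not listed in these tables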;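 also: calls also rest on retests at 20 µM and on dose response follow-up; 0% = protein and probe with vehicle and 100% = probe without protein; strong numbers were not always called active; many hits fall short of the cut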
Env fusion inh – HIV envelope-mediated fusion inhibition | inhibition, % at 12.3 µM | actives 1.1% (n = 360,000) | HeLa-JRFL Env/CEM21 cell fusion, luciferase;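 active = mean replicate inhibition score of at least 50 and every replicate individually at or above 50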;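 also: 0% = plate neutral controls and 100% = maraviroc near 300 nM; one replicate is shown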
Rce1 inhib – blocks yeast Ras-converting enzyme; calls only; yeast membranes, quenched prenylated peptide cleavage fluorescence; actives 0.27% (n = 290,000); Q03530;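 active = fall in fluorescence gain of 50% or more versus controls, with final raw signal at or below 3038400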;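 also: plate controls were neutral control wells for no effect and wells lacking membranes for full effect; tested at 10 µM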
Target sequence (Q03530 whole entry, looked up): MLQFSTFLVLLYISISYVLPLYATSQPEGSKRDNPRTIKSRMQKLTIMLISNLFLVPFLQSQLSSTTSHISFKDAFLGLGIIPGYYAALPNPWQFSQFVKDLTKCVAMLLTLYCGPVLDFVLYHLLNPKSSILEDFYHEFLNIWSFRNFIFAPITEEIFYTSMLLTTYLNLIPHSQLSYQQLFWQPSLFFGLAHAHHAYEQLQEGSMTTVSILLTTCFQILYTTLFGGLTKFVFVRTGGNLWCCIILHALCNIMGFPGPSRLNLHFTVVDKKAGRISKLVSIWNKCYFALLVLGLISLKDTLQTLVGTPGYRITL
PABP FP inh – blocks human PABP binding to poly(A) RNA. inhibition, % at 35 µM. actives 1% (n = 290,000). fluorescence polarization. P11940;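 active = 50% or more with normal probe brightness, or confirmed in later tests; about a fifth of its hits are not listed in these tables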;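 also: calls also rest on retests at 20 µM and on dose response follow-up; controls were probe without protein and protein plus probe with vehicle; some compounds called inactive have numbers as strong as hits; many hits fall short of the cut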
Target sequence (P11940 whole entry, looked up): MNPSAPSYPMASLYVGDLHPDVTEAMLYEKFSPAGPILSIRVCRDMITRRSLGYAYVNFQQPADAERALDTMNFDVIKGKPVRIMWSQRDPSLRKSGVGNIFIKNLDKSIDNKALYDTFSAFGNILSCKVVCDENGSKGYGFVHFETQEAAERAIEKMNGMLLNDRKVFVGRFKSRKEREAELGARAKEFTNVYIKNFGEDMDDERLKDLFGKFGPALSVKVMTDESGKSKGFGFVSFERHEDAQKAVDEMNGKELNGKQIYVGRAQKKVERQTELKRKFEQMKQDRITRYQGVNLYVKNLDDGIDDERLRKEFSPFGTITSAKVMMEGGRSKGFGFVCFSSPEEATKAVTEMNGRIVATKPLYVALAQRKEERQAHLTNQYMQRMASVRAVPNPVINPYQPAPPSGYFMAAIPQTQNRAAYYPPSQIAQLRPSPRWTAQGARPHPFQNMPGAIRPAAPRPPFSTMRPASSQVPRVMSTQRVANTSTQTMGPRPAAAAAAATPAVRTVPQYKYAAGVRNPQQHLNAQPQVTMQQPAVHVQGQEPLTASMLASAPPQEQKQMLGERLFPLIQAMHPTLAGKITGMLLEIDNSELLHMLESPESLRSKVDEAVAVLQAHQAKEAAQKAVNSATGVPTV
UUG fidelity – yeast start codon fidelity modulation; S. cerevisiae UUG-firefly luciferase reporter, luminescence/redox ratio; activity score, % at 18.7 µM; actives 0.13% (n = 350,000);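 active = replicate mean at a twofold rise or more, about +100% in these data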;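 also: firefly luciferase made from a UUG start codon reports start codon fidelity; reporter light over untreated wells divided by growth signal over untreated wells; some hits fall short of that in this replicate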
MT1-MMP act inh – inhibitors of human MT1-MMP activation; P50281; HT1080 RFP-PRO-GFP cells, GFP/RFP ratio fluorescence, overnight; percent of plate control window, DMSO zero; GFP/RFP ratio change, % at 20 µM; actives 0.061% (n = 360,000); AID 651647;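 active = GFP/RFP ratio change of at least 30% with cell ATP level not reduced by more than half and red fluorescence within 50% of control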; also: strong numbers were not always called active
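Assay system: HT1080 RFP-PRO-GFP cells. Benchmarks: DMSO vehicle wells and RFP-L50D-GFP reporter cell wells. Times: overnight cell settling, then overnight compound exposure, 37 °C, 5% CO2. Compound: 20 µM single dose, 1% DMSO. Read-out basis: GFP/RFP fluorescence ratio.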
CSC inhib – cancer stem cell inhibition; cancer stem cell-like cells viability, luminescence; inhibition, % at 7.5 µM; actives 1.1% (n = 300,000); AID 2717;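 active = mean at 75% or more and at least half the replicates too; tested in HMLE shEcad cells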;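 also: 0% = median of negative and 100% = median of positive control wells; the first replicate is given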
eIF4H FP inh retest – second read-out of eIF4H FP inh, no call of its own (marks repeat the call); inhibition, %; compound at 20 µM; confirmation average;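 mean of two retest wells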
PABP FP inh retest – further read-out of PABP FP inh, marked with its call; inhibition, %; compound at 20 µM; confirmation repeats;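 mean of two retest wells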
MT1-MMP act inh RFP – also measured in MT1-MMP act inh; calls as there; RFP signal change, %; measured here: RFP expression control read;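 0 = vehicle wells; hits needed this value within 50% of zero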
* = called active by the depositor; i = inactive; . = no result given. Compounds as they come; 2.9% or so of the library scored in one or more.

SMILES	eIF4H FP inh	Env fusion inh	Rce1 inhib	PABP FP inh	UUG fidelity	MT1-MMP act inh	MT1-MMP act inh RFP	CSC inhib	others
O=C1C(=O)N(c2ccccc2)C(c2ccccc2)C1c1ccccc1 (stereo unspecified)	.	-24	.	.	4	2	1	.
CCc1ccc(C(=O)NC(=S)Nc2ccccc2N2CCOCC2)cc1	-4	.	i	-16	-15	-1	-7	25
COc1ccc(N(C(=O)c2ccn[nH]2)C(C(=O)NC(C)(C)C)c2ccc(F)cc2)cc1 (stereo unspecified)	-1	-232	i	-8	-11	5	9	0
Cc1ccc(C(=O)CSc2nn3c(=O)c(C(C)(C)C)nnc3s2)cc1	-8	.	i	-10	-7	-39	-4	13
O=C(Nc1cnccn1)c1ccncc1	-3	.	i	-15	.	0	-3	-4
COc1ccc(-n2nnnc2SCc2nc(N)nc(N3CCOCC3)n2)cc1	5	.	i	-5	-7	-1	-4	1
CCN1CCN(C(c2cccs2)C(C)NC(=O)c2ccccc2F)CC1 (stereo unspecified)	3	.	i	0	-2	-6	0	.
COC(=O)[C@@H]1[C@@H](C)N(Cc2ccccc2)C(=O)N[C@H]1c1ccccc1	.	-18	i	.	-35	-3	3	-9
Clc1cccc(-c2nc3nc4ccccc4nc3n2Cc2ccco2)c1	17	.	i	25	-19	-3	-4	.
Cc1ccc(OCCN2CCN(c3nc(NCc4ccco4)c4ccccc4n3)CC2)cc1	-4	.	i	-6	-8	5	-8	112*
CC(=O)Nc1ccc(SCC(=O)N2CCN(S(=O)(=O)c3ccccc3)CC2)cc1	24	19	.	15	-7	3	2	2
O=C(NC1C2CC3CC(C2)CC1C3)c1ccc(Br)o1 (stereo unspecified)	0	15	i	0	8	0	-1	10

Ordered by SMILES length (largest number first): 6 of the compounds above
SMILES	eIF4H FP inh	Env fusion inh	Rce1 inhib	PABP FP inh	UUG fidelity	MT1-MMP act inh	MT1-MMP act inh RFP	CSC inhib	others
CC(=O)Nc1ccc(SCC(=O)N2CCN(S(=O)(=O)c3ccccc3)CC2)cc1	24	19	.	15	-7	3	2	2
Cc1ccc(OCCN2CCN(c3nc(NCc4ccco4)c4ccccc4n3)CC2)cc1	-4	.	i	-6	-8	5	-8	112*
Cc1ccc(C(=O)CSc2nn3c(=O)c(C(C)(C)C)nnc3s2)cc1	-8	.	i	-10	-7	-39	-4	13
CCN1CCN(C(c2cccs2)C(C)NC(=O)c2ccccc2F)CC1 (stereo unspecified)	3	.	i	0	-2	-6	0	.
Clc1cccc(-c2nc3nc4ccccc4nc3n2Cc2ccco2)c1	17	.	i	25	-19	-3	-4	.
O=C(Nc1cnccn1)c1ccncc1	-3	.	i	-15	.	0	-3	-4

(more compounds)
SMILES	eIF4H FP inh	Env fusion inh	Rce1 inhib	PABP FP inh	UUG fidelity	MT1-MMP act inh	MT1-MMP act inh RFP	CSC inhib	others
CCCN(CC(=O)Nc1ccccc1C)C(=O)c1ccc(OCC(=O)N2CCOCC2)c(OCC)c1	.	3	.	.	-5	-2	-2	.
CN(CCc1ccccn1)C(=O)CCC1CCCN(C(=O)c2n[nH]c3c2CCCC3)C1 (stereo unspecified)	-3	15	i	-7	.	-3	-5	-7
CSc1ccccc1-n1nnnc1SCc1ccccc1	14	-28	i	0	-6	-4	1	-8
CC(=O)c1cccc(NC(=O)COc2ccc(S(=O)(=O)N3CCCCC3)cc2)c1	6	.	i	8	5	4	-4	-4
c1ccc(CCn2c3ccccc3c3nnc(SCc4ccc5nonc5c4)nc32)cc1	-13	27	i	-3	.	11	-5	.
O=C(CCC(=O)Nc1ccccc1Cl)N/N=C1\CCCc2ccccc21	-16	23	i	11	-12	3	8	.
O=[N+]([O-])c1cccc(S(=O)(=O)N/N=C/c2ccc(O)cc2)c1	4	10	i	-10	.	6	0	-14
Cc1cccc(N(CC(=O)NC2CCCC2)C(=O)c2c(C)noc2C)c1	27	7	i	-8	-28	-1	5	-6
O=C(CCc1nnc(CCCCc2ccccc2)o1)NCCn1cccn1	2	-13	i	0	.	0	7	-10
CCNc1nc(=S)nc(NC(C)C)[nH]1	-1	-12	i	-2	.	3	4	-7
O=S(=O)(N/N=C\C=C\c1ccccc1)c1ccccc1	.	.	i	.	-16	-6	7	-17
CCOC(=O)C1=NN(C(C)=O)C2(CC(=O)N(c3ccc(C)c(C)c3)C2=O)C1 (stereo unspecified)	-4	-3	i	-14	.	1	4	.
Cc1ccc(C)c(NC(=O)C(NCC(C)(C)N2CCOCC2)c2ccccc2)c1 (stereo unspecified)	-13	-11	i	-2	-11	-4	1	-3
Cc1cc(C)nc(NNS(=O)(=O)c2c(C)cc(C(C)(C)C)cc2C)n1	.	6	.	.	-8	-3	0	.
COc1ccc(/C=N/NC(=O)c2cccc(S(=O)(=O)N3CCCC3)c2)cc1O	.	9	.	.	-4	13	2	.
COc1cc(OC)c(OC)cc1CN(C)C(c1ccccc1)c1nnnn1-c1ccccc1C (stereo unspecified)	-4	.	i	-6	.	3	3	14
CC1(C(=O)Nc2ccc3c(c2)OCO3)CCN1C(=O)CCc1cccs1 (stereo unspecified)	.	-20	.	.	-2	5	-2	.
COc1ccccc1C(=O)Nc1c2c(nn1-c1cccc(C)c1C)CS(=O)C2 (stereo unspecified)	-12	.	i	-4	2	5	1	-10
C1C2CC3C1C3C2=NN=C1C2CC3C(C2)C13	.	-21	.	.	-34	1	1	.
O=C(Nc1ncc2c(n1)-c1ccccc1CC2)c1cccc(Cl)c1	-7	-34	i	-8	-8	-3	-10	56
C=CCSc1nnc(-c2cnn(-c3ccccc3)c2-n2cccc2)n1C	10	-24	i	9	3	3	0	3
CC1CCCC(C)N1C(=O)COC(=O)Cn1cnc2c1c(=O)n(C)c(=O)n2C (stereo unspecified)	.	1	i	.	-12	1	1	-15
CC1CC(OCC(O)CN2CCN(Cc3ccccc3)CC2)CC(C)(C)C1 (stereo unspecified)	6	.	i	-11	-7	1	2	40
O=c1nc2c(-c3ccccc3F)n[nH]n2c2ccccc12	-2	-161	.	-8	-8	1	5	-10
CCCNC(=O)c1cccc(C(F)(F)F)c1	1	.	i	-6	.	0	3	-7
CCOC(=O)Cc1cnc(NC(=O)CSc2nc(C)c(CC)c(=O)[nH]2)s1	5	11	i	5	.	4	4	6
Nc1c(Cl)cc(Cl)cc1C(=O)OCC(=O)N1CCCC1=O	.	.	i	.	-11	2	3	-5
Cc1ccc(C)c(C(C)NC(=O)C2CCCO2)c1 (stereo unspecified)	93*	9	i	102*	-8	-2	0	-12
CC(C)(C)CN1CCNC[C@H]1Cc1ccc(O)cc1	.	14	i	.	1	0	0	15
CCN(CC)CC(O)Cn1c(-c2cccc(Cl)c2)nc2cc(C)c(C)cc21 (stereo unspecified)	-3	-15	i	-2	.	3	0	2
c1ccc2c(C3OCC4(CCCC4)CO3)cccc2c1	.	14	.	.	-28	-6	3	.
COc1cc(C(=O)NCCCc2nc3ccccc3n2Cc2cc(C)ccc2C)cc(OC)c1OC	0	13	i	7	3	4	-6	-6
Cc1cccc(OCC(=O)NCC(c2ccco2)N2CCCC2)c1 (stereo unspecified)	.	4	.	.	-2	-3	1	.
CCN1CCCC1CNC(=O)c1ccc(Sc2ccc(F)cc2)c([N+](=O)[O-])c1 (stereo unspecified)	0	-23	i	2	.	0	-1	79*
CCc1nccn1C(=O)c1cnn2c(C(F)F)cc(-c3ccc(C)cc3)nc12	5	-26	i	-1	-25	-1	3	38
CCc1c(C#N)c(=O)[nH]c(=O)n1-c1ccccc1	.	0	i	.	.	6	3	-12
CCOC(=O)CCc1c(C)c2ccc(OC(C)C(=O)OCC)c(C)c2oc1=O (stereo unspecified)	-8	22	.	-2	-26	5	2	.
O=C(CSC1=NCCS1)NC1CCCCC1	-12	.	.	36	-23	0	0	-10
Cc1ccc(C(=O)Nc2ncc(C)s2)s1	1	-45	i	2	-58	10	4	25
C/C(=N/OCC(=O)NCCCCCCNC(=O)CO/N=C(/C)c1cccs1)c1cccs1	-8	36	i	-3	-2	0	-2	-14
O=C(Nc1ccon1)Nc1ccc(Cl)cc1Cl	-19	-14	i	2	-9	-1	-6	18
CN(C(=O)CCl)C1CCCc2ccccc21 (stereo unspecified)	10	-1	.	16	.	-2	3	.
CCOc1cc(/C=C2\SC(N)=NC2=O)ccc1O	-8	11	i	-17	-10	-1	-3	2
O=C(Cn1nnc2ccccc2c1=O)N[C@@H](Cc1ccccc1)C(=O)O	-1	-8	i	-4	-9	0	2	-9
COc1cccc(N/C(SCc2cccc([N+](=O)[O-])c2)=C(/C#N)C(N)=O)c1	-6	-2	.	-4	.	-8	-9	28
O=C(NCCNC(=O)c1cnccn1)c1cccc(Cl)c1	0	-12	i	9	-14	-2	1	.
O=C(Nc1ccccc1O)c1cccc(S(=O)(=O)N2CCOCC2)c1	-2	11	i	-7	5	3	2	-1
CN1CCC(OC(=O)c2cccc(Br)c2)CC1	-1	-19	i	-1	1	-1	4	8
O=C(NC1CCCC1)C(=O)N(Cc1cccnc1)C(C(=O)NC1CCCC1)c1ccco1 (stereo unspecified)	54	-26	i	-6	.	-2	5	10	eIF4H FP inh retest=-11;PABP FP inh retest=0
Nc1nc(SCC(=O)N2CCCc3ccccc32)n[nH]1	.	.	.	.	-13	4	4	-19
CCCC(=O)Nc1c2c(nc3ccccc13)N(c1ccccc1)CC2	-5	.	i	-2	.	1	-1	-3
CC(NC(=O)/C(C#N)=C/c1cn(-c2ccccc2)nc1-c1ccc(F)cc1)c1ccccc1 (stereo unspecified)	-5	15	i	-4	-12	-5	-6	5
CN(C)c1ccc(P(=O)(OCc2ccccc2)C(O)c2ccncc2)cc1 (stereo unspecified)	7	8	i	4	-5	2	2	-15
Cc1[nH]c(=O)[nH]c(=O)c1CSc1nnc([C@@H](NC(=O)OC(C)(C)C)C(C)C)o1	-4	.	i	0	-13	-1	2	3
O=C(Nc1cccc(S(=O)(=O)Nc2ccccc2F)c1)c1ccco1	.	-7	.	.	-15	-2	-1	-5
N=c1c(C(=O)NC2CCCCC2)cc2c(=O)n3ccccc3nc2n1Cc1ccco1	48	-11	i	40	-9	-7	-8	.
COc1nccc(C(F)(F)F)c1C(=O)Nc1ccc(Cl)cc1	-4	-10	i	-1	-12	1	-4	1
COc1ccc(OCc2n(CC(=O)OC3CC(C)CCC3C(C)C)c3ccccc3[n+]2C)cc1 (stereo unspecified)	4	87*	i	1	8	-2	-33	58
O=S1(=O)N=C(Oc2ccccc2)c2ccccc21	-13	-14	i	14	-14	1	4	-6
COc1cccc(NC(=S)N2CCN(S(C)(=O)=O)CC2)c1	-2	-11	i	0	-17	-3	0	1

Reprinted from the part before: 2 entries, then new ones.
SMILES	eIF4H FP inh	Env fusion inh	Rce1 inhib	PABP FP inh	UUG fidelity	MT1-MMP act inh	MT1-MMP act inh RFP	CSC inhib	others
O=S1(=O)N=C(Oc2ccccc2)c2ccccc21	-13	-14	i	14	-14	1	4	-6
COc1cccc(NC(=S)N2CCN(S(C)(=O)=O)CC2)c1	-2	-11	i	0	-17	-3	0	1
CC(=O)Nc1nc(-c2ccc3c(c2)OCO3)cs1	-16	-49	i	-8	.	4	-2	3
S=C(NCc1ccccn1)Nc1ccc(Br)cc1Cl	-4	-4	i	-2	-29	1	0	7
Cc1ccc(OCCNc2ccc(C(F)(F)F)cc2[N+](=O)[O-])cc1	14	-11	i	-4	.	3	2	16
CCOc1ccccc1NC(=O)CCn1ccnc1	1	-11	i	4	-5	1	3	-4
CCS(=O)(=O)N1CCN=C1SCc1ccccc1	9	1	i	7	-11	-1	5	-14
COc1cccc(-c2c(C(=O)N/N=C/c3ccco3)nnn2-c2nonc2N)c1	-12	-7	i	2	-14	-2	1	-3
Cc1ccccc1OCC(=O)NC(C)c1ccccc1 (stereo unspecified)	-4	15	i	-7	-1	1	-1	-5
O=C(CCC1CCCCC1)Nc1cccc(C(=O)Nc2ccc(C(=O)O)cc2)c1	.	-17	i	.	-14	1	1	-13

Screening results from PubChem.
